# Proteasome disasm: blocks ATP-dependent breakdown of the yeast 26S proteasome | anti-FLAG beads, GFP-proteasome disassembly, flow cytometry | inhibition of disassembly, % (test concentration not listed) | 24,000 tested, 0.2% active | AID 751;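 active means above 40%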;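 further: plate controls were ATP control with full disassembly for no effect and ATP-gamma-S intact proteasomes for full effect; higher percent means more bead fluorescence retained so stronger block of disassembly; stock transfer was 100 nL into about 10 µL; wells with too few beads may also be inconclusive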
# VCAM-1 rise: enhancers of VCAM-1 display on endothelial cells, cell-based, plate reader, pooled HUVEC, TNFa stimulus (AID 455) | HUVEC TNFa-induced VCAM-1 immunofluorescence, plate reader; numbers were filed only for top-ranked candidate wells | augmentation, % at 5 µM | 10,000 tested, 0.2% active;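 active means a compound raising TNF-alpha-driven VCAM-1 surface staining, with its hit status upheld on visual or statistical review; inactive means the rest, including hits rejected on review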;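 further: 0% = TNFa with vehicle and 100% = strongest image-checked hit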
# The depositor's hits bear a star; i = inactive; / = not tested or not shown. An excerpt. The share of hits here may be higher or lower than overall.
SMILES	Proteasome disasm	VCAM-1 rise
COC(=O)c1ccc(COc2ccc(C3C4=C(CCCC4=O)Nc4onc(C)c43)cc2)cc1 (configuration not stated)	-0.4	i
CC1(C)CC(=O)C2=C(C1)NC(=O)CC2c1cc2c(cc1Br)OCO2 (configuration not stated)	0.2	/
CC(C)C(=O)N(c1ccc(F)cc1)C1C=CS(=O)(=O)C1 (configuration not stated)	0.0	/
Cc1cc(C(=O)Nc2cccnc2)no1	0.7	i
O=C(Nc1ncnc2sc3c(c12)CCCCC3)c1ccco1	-0.3	i
CCOc1ccc(CCNC(=O)C2CCCN(c3nn4c(=O)cc(C)nc4s3)C2)cc1 (configuration not stated)	-1.1	/
CCn1c(C(=O)N2CCC(C(=O)NCCCSC3CCCCC3)CC2)cc2sccc21	4.6	/
CCOc1ccc(N(C)S(=O)(=O)c2ccc3[nH]cc(C(=O)NCC4CCCO4)c(=O)c3c2)cc1 (configuration not stated)	1.3	i
O=C(Cn1cc2c(n1)CCCC2)NC1CCCCCC1	0.1	/
CCOc1ncccc1C(=O)Nc1ccc2c(C)cc(=O)oc2c1	-2.0	i
O=C(NCc1cccnc1)c1ccc(CS(=O)(=O)Cc2ccc(Cl)cc2)o1	-0.8	/
CCN(CC)CCCNC(=O)c1sc2nc(-c3ccc(F)cc3)cn2c1C	-2.4	/
CC(C)CC(c1nnnn1C1CCCC1)N1CCN(c2ccccc2F)CC1 (configuration not stated)	0.7	i
CCC(=O)c1ccc(OCC(=O)N2CCc3cc(OC)c(OC)cc3C2)cc1	1.1	i
Cc1csc(NC(=O)C2CCC(C)(C(=O)O)C2(C)C)n1 (configuration not stated)	-0.2	/
O=C(CCc1nc(-c2ccccc2F)no1)NCCN1CCc2ccccc2C1	8.4	/
CC(Oc1ccc(Cl)cc1Cl)C(=O)Nc1ncccn1 (configuration not stated)	-0.7	i
CCc1noc(N)c1C(=O)Nc1ccc(F)c(Cl)c1	2.8	/
COCCN(CC(=O)NC1CCCCC1)C(=O)CSc1nc2ccccc2o1	1.2	i
CCOc1ccc(Br)cc1C1NC(=O)c2c(sc3c2CCN(C)C3)N1 (configuration not stated)	2.7	/
CCOC(=O)C(NC(=O)CC)(Nc1sc2c(c1C(=O)OC)CCN(C)C2)C(F)(F)F (configuration not stated)	0.1	/
CCOC(=O)N1CCN(c2c(NCC3CCN(Cc4cccc(C)c4)CC3)c(=O)c2=O)CC1	5.4	i
COC(=O)c1ccc(C2NC(C(=O)O)CS2)cc1 (configuration not stated)	-2.0	i
CCOc1ccc(-c2cc(NC(=O)Cn3ncc4c3-c3ccccc3OC4)on2)cc1OCC	0.6	/
Cn1cccc1Cc1nnc(SCC(=O)NCc2ccccc2Cl)n1-c1ccc(F)cc1	0.0	/
COc1ccc(C2=NOC(C(=O)NCc3ccc(F)cc3)C2)cc1 (configuration not stated)	0.1	/
COc1ccc(NC(=O)C(NS(=O)(=O)c2ccc3c(c2)CCCN3C(C)=O)C(C)C)c(OC)c1 (configuration not stated)	0.0	/
Cn1c(COc2ccc(Cl)cc2)nnc1SCC(=O)NC1CCCCC1	-0.4	i
COc1ccc(-n2nc(C(=O)NCC(=O)NCC3CCCO3)c3ccccc3c2=O)c(OC)c1 (configuration not stated)	-0.9	/
CCOC(=O)C1CCN(S(=O)(=O)c2cc(Br)cc3c2N(C(C)=O)C(C)C3)CC1 (configuration not stated)	-0.7	/
COCCN(C(=O)c1csnn1)C(C(=O)NC(C)(C)C)c1cccc(OC)c1 (configuration not stated)	0.1	i
COc1ccc(C)cc1NC(=O)CN1CCN(CC(=O)Nc2ccccc2F)CC1	0.6	/
CC1=C(C(=O)Nc2cccnc2)C(c2ccccn2)n2nnnc2N1 (configuration not stated)	0.4	/
CCCCCn1c(CN2CCN(C(=O)c3ccco3)CC2)nc2c1c(=O)n(C)c(=O)n2C	0.2	i
CC1CCN(CCCNC(=O)C2CCN(S(=O)(=O)N3CCCCC3)CC2)CC1	-0.3	/
O=C(CN(CCc1ccccc1)C(=O)CN1C(=O)COc2ccccc21)NCc1ccco1	-1.3	i
Cc1cc(C)nc(N(C#N)Cc2ccccc2Cl)n1	0.6	/
CCNCC(O)COCC(O)CNCC (configuration not stated)	-1.9	i
Cn1cc(C(=O)c2ccc(F)cc2)cc1-c1nc2ccccc2n1C	0.6	i
COc1nc(OC)nc(N2CCC(NC(=O)C(Cc3ccc(C(C)C)cc3)NC(C)=O)CC2)n1 (configuration not stated)	-0.6	i
Cc1ccc(N2C(=O)c3ccc(C(=O)N4CCN(c5ccccc5F)CC4)cc3C2=O)cc1	0.0	/
COc1ccc(NCc2nnc(SCC(=O)Nc3cc(C)cc(C)c3)o2)cc1	-0.2	i
CCc1ccc(NC(=O)NCCN2CCc3ccccc3C2)cc1	-2.3	/
O=C(CSc1nnc(-c2ccc3c(c2)OCCO3)o1)N1CCCC1	-1.1	/
CC1Cc2ccccc2N1C(=O)c1cc2c(=O)n3ccccc3nc2n1C (configuration not stated)	-1.7	/
CCn1c(=O)cc(SCC(=O)NCc2ccc3c(c2)OCO3)c2ccccc21	-0.5	/
Cc1ccc(-n2nnnc2SCC(=O)c2cc(C)n(CC3CCCO3)c2C)cc1 (configuration not stated)	2.8	i
Cc1ccc(C)c(Cc2c(C)nc3c(C(=O)N4CCOCC4)cnn3c2C)c1	-0.5	/
Cc1onc(-c2ccccc2Cl)c1C(=O)Nc1ccc(-n2nncc2-c2ccco2)cc1	-1.6	/
COc1ccccc1-c1ccc(Nc2cccc(C(C)=O)c2)nn1	1.1	i
COc1cc(OC)cc(-c2nc(N)n[nH]2)c1	-0.7	i
CC(=O)NCC(=O)N(Cc1ccco1)C1(C(=O)NC2CCCCC2)CCCCC1	-1.9	i
O=C(CSc1nc2c(c(=O)n1-c1ccc(Br)cc1)SCC2)NCc1ccco1	2.8	/
Cc1ccccc1Cn1nnc(C(=O)Nc2cccc(C)c2C)c1N	1.2	/
Cc1cccc(-c2cc3nc(C)cc(NCCCN(C)C)n3n2)c1	-1.4	i
Clc1cc(Cl)c2nc(N3CCOCC3)sc2c1	0.6	/
Cc1ccc(NC(=O)NCC(c2cccnc2)N2CCOCC2)cc1 (configuration not stated)	0.7	/
CCOC(=O)c1ccc(N2C(=O)CC(N(C)CCc3ccc(OC)c(OC)c3)C2=O)cc1 (configuration not stated)	-0.2	i
CCCn1c(NCc2ccc3c(c2)OCO3)nc2ccccc21	1.8	i
COc1ccc(C2CC(c3cc(OC)ccc3OC)n3nnnc3N2)cc1 (configuration not stated)	-0.8	/

# Next section
SMILES	Proteasome disasm	VCAM-1 rise
COc1ccc(CCNC(=O)c2ccncc2)cc1OC	-0.1	i
O=C(CSc1nnc2ccccn12)c1ccc2c(c1)OCCO2	0.5	/
Cc1ccc(NC(=O)N2CCC(c3nc4c(nnn4Cc4cccc(Cl)c4)c(=O)[nH]3)CC2)cc1	-0.5	i
Cn1cc(SCC(=O)Nc2nc3ccccc3s2)c2ccccc21	0.5	/
CC1=Nn2c(nnc2-c2ccccn2)SC1	-1.4	i
COc1ccc2ccccc2c1C1CC(=O)N2CN(Cc3ccco3)CSC2=C1C#N (configuration not stated)	1.9	/
COc1ccc(C2C(=O)N(C3CCCCCC3)CC(=O)N2Cc2ccccc2)cc1OC (configuration not stated)	-1.1	/
CCOC(=O)N1CCC(NS(=O)(=O)c2cc(Br)cc3c2N(C(=O)CC)CC3)CC1	-0.6	/
CCOc1cc(C2C(C(=O)OC(C)C)=C(C)N=C3SCCC(=O)N32)ccc1OC(C)=O (configuration not stated)	-3.2	i
C=CCn1c(SCc2ccc(C#N)cc2)nnc1-c1cccc(Cl)c1	0.7	i
COc1ccc(-c2cc(C(F)(F)F)nc(SCCC(=O)N3CCOCC3)n2)cc1	-3.2	i
COc1ccc(OCc2ccc(-c3nc4ccccc4c(=O)n3N)o2)cc1	0.1	/
O=C(Nc1ccc(F)cc1)N1CCN(c2nc3ccccc3s2)CC1	1.6	/
O=C(NCc1cccnc1)/C(=N\O)c1ccccc1	-0.1	i
Cc1noc(C)c1S(=O)(=O)N1CCC(C(=O)N2CCN(c3ccc(Cl)cc3)CC2)CC1	-0.2	/
CCCS(=O)(=O)N1CCCC(C(=O)NCCCN(C)Cc2ccccc2)C1 (configuration not stated)	-0.2	/
CC1(C)CC(=O)C(C=Nc2ccc(O)cc2)=C(O)C1	-1.2	/
O=C(NC1CCCCCC1)c1c(F)c(F)c(F)c(F)c1F	0.0	i
CCN1CCc2c(C#N)c(N3CCOCC3)nc(NCc3ccccc3)c2C1	-1.7	i
Nc1ccc(-c2nc3c(Cl)c(N)ccc3[nH]2)cc1	-0.2	/
COc1cccc(NC(=O)Cc2cn(C)c3ccccc23)c1	-0.3	/
O=C(NC1CCCC1)C1CCN(S(=O)(=O)N2CCCCC2)CC1	-0.8	/
CCC(C(=O)OCC(=O)Nc1c(C)n(C)n(-c2ccccc2)c1=O)c1ccccc1 (configuration not stated)	-2.8	i
COc1ccccc1NC(=O)Cn1nnc(C(=O)Nc2ccccc2)c1N	-0.1	/
CC(=O)OC1CC(C)(C)N(OC(=O)CCCN2C(=O)c3ccccc3C2=O)C(C)(C)C1	1.7	/
O=C(c1ccccc1)c1cccn1CC(=O)N1CCN(C2CCCCC2)CC1	0.7	/
CCOC(=O)c1cc(C)n(CCCN2CCOCC2)c1C	0.5	i
CC12CC(NC(=O)N1CCc1ccccc1)c1ccccc1O2 (configuration not stated)	-0.8	/
CCCOc1ccccc1C1CC(=O)NC(C)=C1C(=O)OCC(C)C (configuration not stated)	-2.7	/
CSc1nc2ccc3nc(NC(=O)c4cccs4)sc3c2s1	1.0	/
Cn1cnc2c1c(=O)n(Cc1ccccc1)c(=O)n2C	1.4	/
Cc1noc(C)c1C(=O)Nc1sc(C)c(C)c1C#N	0.6	i
COc1cc(NC(=O)c2cc(-c3cccc(O)c3)on2)cc(OC)c1OC	0.5	/
COC(=O)C1=C(C)Nc2ncnn2C1c1ccco1 (configuration not stated)	0.9	i
O=C1c2ccncc2C(=O)N1C1CCCCC1	-0.8	/
CC(C)[C@H](NC(=O)NCc1ccc(Cl)cc1)C(=O)O	0.8	i
COc1nc(N)nc(CC(=O)C2CC2)n1	1.7	/
CN(CC(=O)NC1CCCc2ccccc21)S(=O)(=O)c1ccc2c(c1)c(=O)n(C)c(=O)n2C (configuration not stated)	3.5	/
CCOC(=O)C1CCN(c2c(NC3CCCc4ccccc43)c(=O)c2=O)CC1 (configuration not stated)	-0.7	i
COc1ccc(-c2c(N)nnc3c2[nH]c2ccccc23)cc1OC	0.0	/

# Five neighbouring compounds already listed, for reference:
SMILES	Proteasome disasm	VCAM-1 rise
COC(=O)c1ccc(COc2ccc(C3C4=C(CCCC4=O)Nc4onc(C)c43)cc2)cc1 (configuration not stated)	-0.4	i
CC1(C)CC(=O)C2=C(C1)NC(=O)CC2c1cc2c(cc1Br)OCO2 (configuration not stated)	0.2	/
CC(C)C(=O)N(c1ccc(F)cc1)C1C=CS(=O)(=O)C1 (configuration not stated)	0.0	/
Cc1cc(C(=O)Nc2cccnc2)no1	0.7	i
O=C(Nc1ncnc2sc3c(c12)CCCCC3)c1ccco1	-0.3	i

# Additional records:
SMILES	Proteasome disasm	VCAM-1 rise
CC1CCN(CCCNC(=O)Cc2c(C(=O)O)n(C)c3ccccc23)CC1	-2.5	/
COc1ccc(-n2nc(C(=O)N3CCN(c4ccc(F)cc4)CC3)c3ccccc3c2=O)c(OC)c1	1.0	/
COc1cccc(-n2c(Cc3cc(=O)[nH]c(=O)[nH]3)nnc2SC(C)C)c1	1.4	/
O=C(CN1C(=O)CCSc2ccccc21)Nc1ccc2c(c1)OCCO2	-1.4	/
CCOc1ccc(N/C(SC)=C(/C#N)C(N)=O)cc1	0.9	/
CC1=C(C(=O)NC(C)C)C2(CCC(C)CC2)OC1=O (configuration not stated)	0.3	/
NC(=O)C1CCN(C(=S)c2cccs2)CC1	-2.5	i
CCN1CCN(Cc2ccc(NC(=O)CC3Oc4ccc(C)cc4NC3=O)cc2)CC1 (configuration not stated)	0.1	/
CCOC(=O)N1CCN(C(=O)CSc2nc3c(c(=O)n2-c2ccccc2OC)SCC3)CC1	2.1	/
CCOC(=O)c1cccc(NC(=O)CCS(=O)(=O)c2cccc3nsnc23)c1	1.1	/
O=S(CC(O)COCc1ccc(Cl)cc1)c1ccccn1 (configuration not stated)	0.2	i
CCOc1ccccc1N1CCN(S(=O)(=O)c2cccc3nsnc23)CC1	1.4	i
CS(=O)(=O)N(Cc1ccco1)CC(O)Cn1c2ccccc2c2ccccc21 (configuration not stated)	-2.0	i
CCCCn1c(=O)[nH]c(=O)c2c1nc(-c1ccncc1)n2CCOC	2.2	i
O=C1C(Cl)=C(N2CCOCC2)C(=O)N1CCc1ccccc1	0.8	i
COc1ccc(S(=O)(=O)CCC(=O)O)cc1	-0.4	i
NS(=O)(=O)c1ccc(CNC(=O)NC2(c3ccccc3)CC2)cc1	-0.1	/
O=C(NCc1ccco1)c1cccc(-c2nnc(-c3ccccc3)o2)c1	1.8	i

# 2 entries from above, with values under each structure:
# Every second line gives: Proteasome disasm, VCAM-1 rise
O=S(CC(O)COCc1ccc(Cl)cc1)c1ccccn1 (configuration not stated)
    0.2, i
CC1(C)CC(=O)C2=C(C1)NC(=O)CC2c1cc2c(cc1Br)OCO2 (configuration not stated)
    0.2, /

# High-throughput results (PubChem)
